Bioassay records (PubChem)
Insulin prom inh = inhibitors of insulin promoter-driven GFP, primary screen, imaging, TRM-6 cells (human fetal islet line), eGFP reporter, cell count; reporter expression induced with tamoxifen; 130,000 tested, 0.9% active; AID 1273, 2008; inhibition, % at 2 µM;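 active means inhibition above the mean plus 3 SD, with well images judged a real hit on visual review, cut at about 60% in these data, passing the limit was not always enough; inconclusive means inhibition over the cutoff but images rejected on review; inactive means inhibition not above the cutoff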
RGS16-Gao = modulators of RGS16 binding to Galphao, primary screen, biochemical, human proteins, multiplexed bead flow cytometry. Regulator of G-protein signaling 16 (Homo sapiens) + Guanine nucleotide-binding protein …. bead-based flow cytometry RGS16-Galphao binding, fluorescence; actives lie on both sides. binding response (% of control), % at 10 µM. 220,000 tested, 0.38% active. AID 1441, 2008;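 active means below 25% or above 175%, edge rows of some plates excepted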;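 further: Galphao activated by GDP with aluminum fluoride before binding; 100% = wells without compound and 0% = beads without RGS; some results beyond the cut were filed as inactive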
Target sequence (O15492 whole entry, looked up): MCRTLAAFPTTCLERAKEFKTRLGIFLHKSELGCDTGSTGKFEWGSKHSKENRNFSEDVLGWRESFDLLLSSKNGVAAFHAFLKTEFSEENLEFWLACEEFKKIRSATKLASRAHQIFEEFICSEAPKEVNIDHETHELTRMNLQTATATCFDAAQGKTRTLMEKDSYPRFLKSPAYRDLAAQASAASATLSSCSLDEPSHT
Target sequence (P09471 whole entry, looked up): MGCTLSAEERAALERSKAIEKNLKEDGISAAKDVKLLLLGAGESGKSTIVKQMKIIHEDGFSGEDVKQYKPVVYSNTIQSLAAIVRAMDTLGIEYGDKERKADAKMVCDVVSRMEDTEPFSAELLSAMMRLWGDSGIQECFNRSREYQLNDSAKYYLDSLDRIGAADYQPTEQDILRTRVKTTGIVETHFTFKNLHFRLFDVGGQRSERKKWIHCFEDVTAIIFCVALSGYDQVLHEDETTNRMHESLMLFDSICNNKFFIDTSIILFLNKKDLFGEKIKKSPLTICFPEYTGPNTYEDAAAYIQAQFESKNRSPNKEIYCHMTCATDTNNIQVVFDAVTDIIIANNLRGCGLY
HSV replic up = enhancers of HSV replication in host cells, fold increase, host cell viability; HSV replication augmentation in cells; maximum fold increase; 220,000 tested, 0.005% active;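 active means peak rise of 1.5-fold or more in the series; inconclusive means self-fluorescent or not available for retest; tested in PC3 cells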;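 further: first round at 10 µM; read as green reporter fluorescence; hits show the peak of a series up to 25 µM; 1 = signal of infected wells without compound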
PKD1 inh = inhibitors of human PKD1 kinase, biochemical, fluorescence polarization; Serine/threonine-protein kinase D1 (Homo sapiens), Q15139; PKD1 kinase fluorescence polarization assay; inhibition, %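 (about 10 µM by stock and volumes)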; 200,000 tested, 0.056% active; AID 797, 2007;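 active means inhibition of 50% or more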;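 further: controls were vehicle for no effect and a reference inhibitor for full effect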
GALR2 ag = GALR2 receptor agonists, primary screen, cell-based; activation, %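 (tested at 5 µM)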; 140,000 tested, 0.48% active; Galanin receptor type 2 (Homo sapiens), O43603; GALR2-expressing cells, agonist activation read-out;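 active means above mean plus 3 SD of all compounds, about 5% in these data, not always enough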;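 further: 0% = vehicle buffer wells and 100% = reference agonist at full effect; tested in CHO reporter cells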
Target sequence (O43603 whole entry, looked up): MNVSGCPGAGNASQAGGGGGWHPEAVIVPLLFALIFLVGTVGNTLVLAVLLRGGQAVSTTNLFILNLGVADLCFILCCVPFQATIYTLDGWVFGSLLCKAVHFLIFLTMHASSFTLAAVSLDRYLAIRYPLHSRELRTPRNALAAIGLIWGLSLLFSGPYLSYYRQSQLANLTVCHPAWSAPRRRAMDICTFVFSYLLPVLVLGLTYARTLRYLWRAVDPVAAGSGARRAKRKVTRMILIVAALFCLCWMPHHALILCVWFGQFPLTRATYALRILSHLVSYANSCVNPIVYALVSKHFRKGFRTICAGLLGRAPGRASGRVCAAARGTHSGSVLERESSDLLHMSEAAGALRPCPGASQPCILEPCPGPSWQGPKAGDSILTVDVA
Insulin prom inh cell count = second read-out of Insulin prom inh, no call of its own (marks repeat the call); normalized cell count, %; measured here: cell count, toxicity; reference of the scale not given here;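 cells exposed to compound for 48 h; stained nuclei by imaging scaled within each plate; lower means fewer cells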
HSV replic up primary fold = recorded beside HSV replic up, whose call it bears; fold increase; compound at 10 µM; measured here: primary screen fold increase 10 uM; tested in PC3 cells;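 GFP signal in the first replicate; 1 = infected wells without compound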
Active calls of the source: *; i = inactive; ? = inconclusive; . = no result given.

cpd	SMILES	Insulin prom inh	Insulin prom inh cell count	RGS16-Gao	HSV replic up
1	COc1ccc(C2(CN(C(C)=O)C(C)=O)CCCC2)cc1OC	0	91	102	i
2	COc1ccc(-c2cn3cccnc3n2)cc1F	57	104	107	i
3	C=CCNc1cnn(-c2ccccc2)c(=O)c1Cl	5	110	97	i
4	CCn1c(Cc2cccs2)nnc1SCC(=O)Nc1ccc(OC)c(OC)c1	-21	77	102	i
5	CC1(C)CCCN(C(=O)c2coc(=O)c(Br)c2)C1	-55	104	103	i
6	CC1CN(S(=O)(=O)c2cccc(C(=O)OCC(=O)Nc3ccc4c(c3)OCO4)c2)CC(C)O1 (stereo not drawn)	.	.	100	i
7	COc1ccccc1NS(=O)(=O)c1cc(NC(=O)c2ccncc2)ccc1N1CCCC1	-20	147	72	i
8	COc1cc(NC(=O)COc2ccccc2Cl)ccc1NC(=O)C(C)C	.	.	104	i
9	Cc1c(N=Cc2cc(Br)cc(Br)c2O)cccc1C(=O)O	23	64	78	?
10	C/C(CCc1oc2ccccc2c1-c1ccc(C)o1)=N/O	-21	68	101	i
11	CN1CCCN(S(=O)(=O)c2cccc(Cl)c2Cl)CC1	.	.	103	i
12	CCCCN1C2=C(C(=O)CCC2)C(c2ccc(Cl)c(Cl)c2)C2=C1c1ccccc1C2=O (stereo not drawn)	17	61	104	i
13	Cc1ccccc1C(=O)N1CCN(c2ccc(NC(=O)c3ccc4c(c3)OCO4)cc2)CC1	-20	125	113	i
14	Cc1nc2c(N=Nc3ccccc3F)c(N)nn2c(N)c1C#N	.	.	101	i
15	COCCSc1ccccc1C(=O)Nc1ccccc1C(C)C	0	70	138	i

cpd	HSV replic up primary fold	PKD1 inh	GALR2 ag
1	1.2	-8	0.3
2	0.95	4	0.0
3	0.93	-8	.
4	0.96	8	-1.5
5	0.82	11	-0.5
6	1.1	-15	-1.3
7	0.82	5	.
8	0.91	-7	.
9	.	-6	-0.9
10	0.9	1	-1.2
11	0.86	-7	.
12	0.87	-15	-0.7
13	0.89	2	.
14	0.98	3	.
15	1.1	-5	.

(list continues)
cpd	SMILES	Insulin prom inh	Insulin prom inh cell count	RGS16-Gao	HSV replic up
16	O=C(Nc1cccnc1)c1ccc(NS(=O)(=O)c2cc([N+](=O)[O-])ccc2Cl)cc1	.	.	106	i
17	CC(C)(c1ccccc1)c1ccc(OCCCNCCO)cc1	6	104	101	i
18	COC(=O)c1ccc(C(=O)OC)c(NC(=S)N2CCN(c3ccc(F)cc3)CC2)c1	-403	89	103	i
19	CC1=NCCN1CCNC(=O)Nc1ccc(F)cc1	.	.	109	i
20	CN1C(=S)SC(N(O)C(=O)NC2CCCCC2)C1(C)C (stereo not drawn)	18	84	103	i
21	COc1ccc(Cl)cc1N1C(=O)CC(Sc2ccccc2N)C1=O (stereo not drawn)	.	.	101	i
22	COc1cc(/C=N/NS(=O)(=O)c2ccc(C)c([N+](=O)[O-])c2)ccc1O	.	.	99	i
23	CC(C)NC(=O)c1onc(CSc2cccc3ccccc23)c1C(=O)O	0	82	77	i
24	CCCOc1ccccc1/C=C(\C#N)C(=O)Nc1cccnc1	.	.	109	i
25	CCC(/C=N/NC(=O)C(=O)N/N=C/C(CC)CC)CC	0	98	97	i
26	CCC(C)C(NC(=O)OC(C)(C)C)C(=O)NC(Cc1ccccc1)C(=O)OC (stereo not drawn)	.	.	100	i
27	CC(C)CC(=O)N1CCN(C(=O)CCC2CCCC2)CC1	.	.	101	i
28	CC(=O)Cc1cc2cc([N+](=O)[O-])ccc2oc1=O	.	.	103	i
29	CN(C)CCNc1nc2c(c(=O)[nH]c(=O)n2C)n1CCCc1ccccc1	.	.	104	i
30	Cc1c(C(=O)N2CCC(Cc3ccccc3)CC2)cccc1[N+](=O)[O-]	56	95	102	i

cpd	HSV replic up primary fold	PKD1 inh	GALR2 ag
16	1	.	.
17	0.92	1	1.6
18	0.99	-7	-0.9
19	0.96	.	.
20	0.97	-6	-1.3
21	0.96	.	.
22	0.99	-4	.
23	1.1	-6	-2.0
24	0.75	.	.
25	0.93	12	-0.4
26	0.84	-4	-3.9
27	0.9	-3	-0.3
28	1	.	.
29	0.86	-12	-1.0
30	0.98	-4	.

Other structures.
cpd	SMILES	Insulin prom inh	Insulin prom inh cell count	RGS16-Gao	HSV replic up
31	COc1ccc(CCNC(=O)CSCc2ccc([N+](=O)[O-])cc2)cc1OC	-8	112	110	.
32	C=CCn1c(Cc2cccs2)nnc1SCC(=O)c1cccc(Br)c1	-25	106	29	i
33	NS(=O)(=O)c1ccc(CCNC(=O)CSc2ccccc2)cc1	0	93	98	i
34	COc1cc(S(=O)(=O)NC2CCCCC2C)ccc1Cl (stereo not drawn)	-138	69	102	i
35	CCOC(=O)Cn1nnc(-c2cc(OC)c(OC)c(OC)c2)n1	-27	81	102	i
36	NNC(=O)CSc1cccc2cccnc12	11	122	104	i
37	CN(Cc1nc2ccccc2n1C)S(=O)(=O)c1ccc(F)cc1	93*	154*	102	i
38	COc1ccc(Nc2nc(C)cc(=O)[nH]2)c(OC)c1	0	95	102	i
39	O=C(Cn1cnc2ccccc2c1=O)NCCC(=O)Nc1ccc2c(c1)OCO2	47	127	105	i
40	COc1ccc(C(=O)/C=C2/Sc3cc4c(cc3N2C)OCO4)cc1	.	.	113	i
41	CCOC(=O)C1C(c2ccc(OC)c(OC)c2)c2c([nH][nH]c2=O)CC1(C)O (stereo not drawn)	.	.	106	i
42	Cc1ccc(CNC(=O)C2CCN(S(=O)(=O)N3CCC4(CC3)OCCO4)CC2)cc1	6	142	102	i
43	O=C(NCCc1csc(-c2cccnc2)n1)c1ccc(Cl)cc1	.	.	100	i
44	c1ccc(-n2nnnc2-n2cnc3ccccc32)cc1	-10	109	107	i
45	CC1CCCC(C)N1S(=O)(=O)c1ccc(NC(=O)c2ccccc2C(=O)N2CCOCC2)cc1 (stereo not drawn)	62	49	94	i

cpd	HSV replic up primary fold	PKD1 inh	GALR2 ag
31	.	4	0.7
32	0.94	-3	-1.4
33	0.93	-3	-1.1
34	0.94	-6	-1.5
35	0.96	3	.
36	1.1	-10	-2.3
37	0.92	-2	-0.9
38	1.1	-5	-0.9
39	0.92	-1	.
40	1.3	-8	0.0
41	1	.	.
42	0.97	-5	-1.7
43	0.86	3	.
44	1	3	-1.1
45	1.1	7	0.4

Look-ups from the results shown.
cpd 31 | PKD1 inh: 4
cpd 44 | GALR2 ag: -1.1
cpd 34 | PKD1 inh: -6

(more compounds)
cpd	SMILES	Insulin prom inh	Insulin prom inh cell count	RGS16-Gao	HSV replic up
46	Cc1cccc2cc(/C=C/C(=O)c3ccco3)c(Cl)nc12	.	.	96	i
47	CCNc1ccc(C(=O)OCC)cc1NC(=O)c1cccc(S(=O)(=O)N2CCOCC2)c1	.	.	100	i
48	COc1cccc(OC)c1C(=O)NC(=O)Nc1c(F)cc(F)cc1F	.	.	96	i
49	CN(C)/C=C(/C(=O)c1ccccc1Cl)S(=O)(=O)c1ccccc1	-22	118	.	i
50	COc1ccc(OC/C(O)=C(\C#N)c2nc3ccccc3[nH]2)cc1	16	106	104	.
51	Cc1cc2ncn(S(=O)(=O)c3ccc(S(=O)(=O)N4CCCCCC4)cc3)c2cc1C	0	140	.	i
52	COc1ccc(C(C(N)=O)c2ncc(C(F)(F)F)cc2Cl)cc1OC (stereo not drawn)	.	.	95	i
53	CSc1nsc(/C=C/Nc2ccc(C(=O)O)cc2)c1C#N	0	59	105	i
54	c1ccc(-c2nc(N3CCCCCC3)c3ccccc3n2)nc1	.	.	99	i
55	N/C(=N\NC(=O)c1ccccc1Cl)c1cc2ccccc2oc1=O	-17	49	98	i
56	COC(=O)c1ccccc1NC1c2ccccc2C(=O)N1c1cccnc1 (stereo not drawn)	.	.	107	i
57	Cn1c(=O)c2c(nc(NCc3ccc4c(c3)OCO4)n2Cc2ccccc2F)n(C)c1=O	55	115	105	i
58	CC(=O)N1CCN(c2ccc(NC(=O)c3ccc(N4CCCC4)c([N+](=O)[O-])c3)cc2Cl)CC1	-8	112	97	i
59	COc1cccc(NC(=O)c2ccc3c(c2)N(CC(=O)N2CCCCC2)C(=O)C(C)(C)O3)c1	.	.	87	i
60	COc1ccc(CN2CCOCC2)cc1OC	-7	66	104	i

cpd	HSV replic up primary fold	PKD1 inh	GALR2 ag
46	0.88	.	.
47	0.97	-13	0.1
48	1	.	.
49	0.73	-19	-3.7
50	.	6	0.6
51	0.85	-6	-1.6
52	0.97	1	.
53	1.1	-3	.
54	0.68	3	0.0
55	1.1	1	.
56	0.9	-3	0.0
57	0.83	-3	-0.9
58	0.89	6	-2.9
59	0.76	-7	-0.2
60	1	-11	-0.3

Next results.
cpd	SMILES	Insulin prom inh	Insulin prom inh cell count	RGS16-Gao	HSV replic up
61	COc1cc(CNCc2ccccn2)ccc1OCc1cccc(Cl)c1	-25	127	104	i
62	Cc1cc(OCC(=O)NCCN2CCOCC2)cc(C)c1Br	-43	139	99	i
63	Cc1ccc(-n2c(=O)c3c(C)c(C)sc3n(Cc3cc(=O)n4ccccc4n3)c2=O)cc1C	40	92	125	i
64	CCCCn1c(SCc2c(C)noc2C)nc2cc(S(N)(=O)=O)ccc21	-56	75	98	i
65	COc1ccc(NC(=O)CS(=O)(=O)c2cn(CC(=O)N3CCOCC3)c3ccccc23)cc1	-11	125	96	i

cpd	HSV replic up primary fold	PKD1 inh	GALR2 ag
61	0.87	-4	-0.8
62	0.97	7	-3.1
63	0.94	3	1.1
64	1	-10	-0.5
65	1	-7	.

A different layout for some results above:
#61 COc1cc(CNCc2ccccn2)ccc1OCc1cccc(Cl)c1
  Insulin prom inh = -25
  Insulin prom inh cell count = 127
  RGS16-Gao = 104
  HSV replic up = i
  HSV replic up primary fold = 0.87
  PKD1 inh = -4
  GALR2 ag = -0.8
#62 Cc1cc(OCC(=O)NCCN2CCOCC2)cc(C)c1Br
  Insulin prom inh = -43
  Insulin prom inh cell count = 139
  RGS16-Gao = 99
  HSV replic up = i
  HSV replic up primary fold = 0.97
  PKD1 inh = 7
  GALR2 ag = -3.1
#63 Cc1ccc(-n2c(=O)c3c(C)c(C)sc3n(Cc3cc(=O)n4ccccc4n3)c2=O)cc1C
  Insulin prom inh = 40
  Insulin prom inh cell count = 92
  RGS16-Gao = 125
  HSV replic up = i
  HSV replic up primary fold = 0.94
  PKD1 inh = 3
  GALR2 ag = 1.1
#64 CCCCn1c(SCc2c(C)noc2C)nc2cc(S(N)(=O)=O)ccc21
  Insulin prom inh = -56
  Insulin prom inh cell count = 75
  RGS16-Gao = 98
  HSV replic up = i
  HSV replic up primary fold = 1
  PKD1 inh = -10
  GALR2 ag = -0.5
